Screens deposited in PubChem by National Center for Advancing Translational Sciences (NCATS).
Lassa entry inh: blocks Lassa virus binding to or entry into cells; Lassa virus pseudotype entry inhibition, cell reporter; control for the full effect not named in the record; Potency, µM (doses to about 37.9 µM), for inactives: top-dose activity change, negative = inhibition, most hits filed as inhibitors; hit rate 1.2% among 300,000; AID 540256; active means well fitted inhibition curve with a large enough effect; inconclusive means small, poorly fitted or top-dose-only effect, or effect the other way; inactive means flat fitted curve, though single readings scatter; tested in HEK293 cells; further: on the % scale 0 is the no-effect control and ±100 the full control effect; nearly all actives have a fitted effect of over 50% in size; luciferase read-out
StopGo reporter: lowers the luciferase signal of an FMDV 2A StopGo reporter; human cells with a luciferase reporter of 2A StopGo recoding; control for the full effect not named in the record; Potency, µM (titrated, usually from 57.9 µM), inactives show at the top dose signal change, negative = less light; hit rate 1.2% among 410,000; active = well fitted falling curve with a large enough effect; inconclusive = small, poorly fitted or top-dose-only effect; inactive = no such curve, though single readings can be large or run the other way; tested in HEK293T cells; further: on the % scale 0 is the no-effect control and ±100 the full control effect; nearly all actives have a fitted effect of over 45% in size; luciferase light after 4 h
Cruzain Triton: inhibitors of Trypanosoma cruzi cruzain with detergent; P25779; purified cruzain, Z-FR-AMC fluorescence, 0.01% Triton; Potency, µM, without a hit: max response, negative = inhibition, usual class: inhibitors; hit rate 0.43% among 200,000; AID 1478; active means well fitted curve in the direction sought with a large enough effect; inconclusive means small, poorly fitted or top-dose-only effect, or another doubt; inactive means no such curve, though single readings can be large; an effect the other way counts as inactive or inconclusive;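 further: plate controls were neutral wells for no effect and buffer without enzyme for full effect; nearly all actives have a fitted effect of over 40% in size; top concentration of the series not given in the record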
Target sequence (P25779 123-467 limits assumed): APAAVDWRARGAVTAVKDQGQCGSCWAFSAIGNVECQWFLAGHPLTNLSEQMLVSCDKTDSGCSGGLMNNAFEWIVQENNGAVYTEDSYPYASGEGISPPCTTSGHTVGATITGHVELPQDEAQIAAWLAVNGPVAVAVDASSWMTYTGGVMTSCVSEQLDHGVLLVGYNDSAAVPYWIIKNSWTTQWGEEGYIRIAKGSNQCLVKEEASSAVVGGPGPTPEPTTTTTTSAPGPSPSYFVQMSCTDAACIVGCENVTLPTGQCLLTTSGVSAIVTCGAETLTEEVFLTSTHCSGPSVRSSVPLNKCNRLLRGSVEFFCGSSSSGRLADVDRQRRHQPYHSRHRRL
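Steps: dispense cruzain (1.5 nM final) in acetate buffer pH 5.5 with DTT and 0.01% Triton X-100; pin-transfer compounds; incubate 15 min RT; add Z-FR-AMC (2 uM final); read fluorescence every 30 s, using the 60 s intensity change.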
SARS PLP yeast: blocks SARS-CoV papain-like protease in a yeast assay | S. cerevisiae expressing SARS-CoV PLpro, growth rescue; control for the full effect not named in the record | Potency, µM (top dose mostly 32.9 µM), for inactives: at the top dose activity, positive = growth rescue | hit rate 0.19% among 330,000 | AID 485353; further: 0% is about no effect; nearly all actives have a fitted effect of over 55% in size; growth read by luminescence after 48 h
NS1 inh: blocks influenza NS1 protein function; hit rate 0.4% among 270,000; S. cerevisiae slowed by influenza A NS1, growth recovery by OD600; Potency, µM (titrated, usually from 46.1 µM), for inactives: top-dose activity, positive = more growth; further: actives are rising curves; nearly all actives have a fitted effect of over 50% in size
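Recovery from NS1-induced slow growth read by OD600 in budding yeast switched to galactose assay medium (pH 6.0, -URA) at 1:100 dilution. Compound 23 nl per well; the matching strain lacking NS1 serves as control.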
Cruzain noTriton: blocks cruzain activity in detergent-free assay | purified cruzain, Z-FR-AMC fluorescence, no detergent | P25779 | Potency, µM, for inactives: max response, negative = inhibition, hits mostly inhibitors | AID 1476 | hit rate 2.3% among 200,000; active means well fitted curve in the direction sought with a large enough effect; inconclusive means small, poorly fitted or top-dose-only effect, or another doubt; inactive means no such curve, though single readings can be large; an effect the other way counts as inactive or inconclusive;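 further: plate controls were enzyme without inhibitor for no effect and buffer without enzyme for full effect; nearly all actives have a fitted effect of over 40% in size; top concentration of the series not given in the record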
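Purified cruzain at 1.5 nM, pre-incubated 15 min with compound at room temperature in 100 mM sodium acetate pH 5.5, 5 mM DTT, 0.00005% Triton X-100. Reaction started with 2 uM Z-FR-AMC; AMC fluorescence increase over 60 s gives rate.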
MARV entry inh: inhibitors of Marburg virus binding or cell entry; Marburg virus pseudotyped entry inhibition, cell reporter; control for the full effect not named in the record; about a third of the inactives were read at about 46 µM; Potency, µM (highest dose often 37.8 µM), inactives show top-dose activity change, negative = inhibition, usual class: inhibitors; hit rate 1.8% among 300,000; active = well fitted inhibition curve with a large enough effect; inconclusive = small, poorly fitted or top-dose-only effect, or effect the other way; inactive = flat fitted curve, though single readings scatter; tested in HEK293 cells; about a fifth of its hits are not listed in these tables; further: on the % scale 0 is the no-effect control and ±100 the full control effect; luciferase read-out
RE007 growth inh: less growth of the S. pombe RE007 Vpr strain | Potency, µM (series often up to 92.2 µM), inactives show top-dose activity change, negative = less growth | hit rate 0.21% among 360,000 | AID 651644 | S. pombe RE007 Vpr strain, BacTiter-Glo ATP luminescence, 24 h; control for the full effect not named in the record; active = well fitted falling curve with a large enough effect; inconclusive = small, poorly fitted or top-dose-only effect; inactive = no such curve, though single readings can be large or run the other way;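 further: on the % scale 0 is the no-effect control and ±100 the full control effect; nearly all actives have a fitted effect of over 50% in size; the assay follows cell death caused by Vpr and the record does not say whether a fall means rescue or toxicity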
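Fission yeast RE007 carrying one integrated HIV-1 vpr copy, seeded at OD 0.01 in PMG+AL medium with 23 nL pinned compound. Grown 24 h at 30 degrees; viability read by BacTiter-Glo luminescence after 5 min.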
Active calls of the source: *; ? = inconclusive; · = not tested or not shown; & = joins results of further samples; [ ] = dose if it differs, or a comment. Unless noted, the call rests on the fitted dose curve; in most records, active means well fitted rising curve with a large enough effect; inconclusive means small, poorly fitted or top-dose-only effect; inactive means no such curve, though single readings can be large or run the other way. Potency means the concentration at half of the fitted maximal effect.

SMILES	Lassa entry inh	StopGo reporter	Cruzain Triton	SARS PLP yeast	NS1 inh	Cruzain noTriton	MARV entry inh	RE007 growth inh
COc1ccc(-n2nc3c(c2NC(=O)c2ccc(Br)o2)CS(=O)(=O)C3)cc1	·	-15.8%	·	18.5%	-1.9%	·	·	11.9%
O=C(O)c1ccccc1C(=O)N1CCc2c([nH]c3ccccc23)C1C(F)(F)F (centres undefined)	-24.3%[46.1 µM]	5.3%	·	0.9%	4.2%	·	-19.3%[46.1 µM]	-5.1%
COc1ccc(CNC(=O)Nc2cn(CC(C)C)c(=O)c3ccccc23)cc1	?	8.8%	-9.3%	·	·	-10.1%	·	·
COc1ccc(NC(=O)Cc2nnc(N)s2)cc1	·	22.7%	·	3.2%	·	·	13.9%[46.1 µM]	-2.7%
Cc1cccc(NS(=O)(=O)c2c(C(=O)N3CCOCC3)c(C)n(C)c2C)c1C	-9.6%[46.1 µM]	24.6%	·	-4.4%	-6.8%	·	5.9%[46.1 µM]	-3.8%
COCCNc1nc(C)cc(-c2cc(C(=O)NCc3ccccc3)on2)n1	·	16.4%	·	-0.4%	-6.2%	·	·	-7.6%
COCCCn1c(-c2ccc(OC)cc2)nc2nc3ccccc3nc21	·	·	-2.9%	5.6%	-3.8%	2.0%	4.4%	·
COc1cc(Br)c(CC(=O)NC2CC2)cc1OC	·	-9.5%	·	1.1%	5.7%	·	17.1%[46.1 µM]	-12.1%
Cc1c(C(=O)OCC2CCCCC2)[nH]c2c1C(=O)CC(c1ccccc1Cl)C2 (centres undefined)	-18.5%[46.1 µM]	-4.8%	0.0%	·	·	-8.6%	-12.3%[46.1 µM]	·
Cc1cc(Br)ccc1OCCCCN1CCC(C)CC1	?	-15.2%	1.2%	-23.0%	-0.6%	-6.3%	?	4.5%
CCCC(=O)N(Cc1cc2ccccc2[nH]c1=O)c1ccccc1OC	8.2%	·	-1.3%	4.6%	5.0%	9.2%	-0.4%&-0.4%	63.1%
COc1ccc2c(c1)c1nc3ccccc3nc1n2CC(=O)OC(C)C	0.3%	7.9%	-2.2%	8.5%	-2.4%	17.2%	?	14.0%
COc1ccc(NC(=O)c2nc3nccc(C)n3n2)cn1	14.3%	25.9%	0.6%	2.0%	5.9%	-0.4%	?	-3.4%
COc1ccc(N2CCN(C(c3nnnn3C3CCCC3)C(C)C)CC2)cc1 (centres undefined)	2.0%	-17.1%	·	0.4%	-0.1%	·	-21.0%[46.1 µM]	-2.3%
COc1cc2c(cc1OC)CN(C(C)C(=O)N1CCc3ccccc31)CC2 (centres undefined)	?	-21.9%	-1.2%	13.6%	1.8%	-4.5%	?	-15.1%
CCn1ncc(C(=O)Nc2ccc(S(=O)(=O)N3CCCC3)cc2)c1C	29.6%	-17.0%	4.3%	-3.2%	0.4%	-4.7%	-19.8%	6.0%
COc1ccc(CNc2cccc(C)n2)c(O)c1	1.1%[46.1 µM]	15.0%	·	1.7%	6.6%	·	4.2%[46.1 µM]	-3.7%
CCN(c1ccccc1)S(=O)(=O)c1ccc(Cl)c(NC(=O)CSc2ncn[nH]2)c1	-18.8%	0.0%	-7.7%	-14.9%	-5.5%	-6.0%	-11.5%	·
COc1ccccc1C(=O)C1CCCN(C(=O)c2cnn(C(C)C)c2)C1 (centres undefined)	·	-11.5%	·	?	-2.2%	·	·	8.8%
CCCCN(Cc1ccccc1)S(=O)(=O)c1cc2c(cc1Br)CC(C)N2C(C)=O (centres undefined)	-24.9%	-19.7%	·	·	·	·	?	17.1%
CS(=O)(=O)Nc1ccc(C(=O)N2CCc3ccccc3C2)cc1	-3.0%	23.4%	·	0.1%	1.0%	·	20.7%[46.1 µM]	3.7%
CCCCn1c(N)c(N(CCC(C)C)C(=O)c2[nH]c(C)c(C(=O)OCC)c2C)c(=O)[nH]c1=O	0.7%	0.9%	·	-0.2%	·	·	19.5%	-12.6%
Cn1c(SCC#N)nnc1-c1cnccn1	-7.9%	0.1%	-4.3%	19.0%	1.5%	1.7%	?	4.8%
O=C(NCCc1ccccc1F)C1CC(=O)N(c2ccccc2)C1 (centres undefined)	·	-13.5%	·	5.8%	11.1%	·	·	-8.8%
Cc1ccc(Nc2cc(Cl)nc(N)n2)c([N+](=O)[O-])c1	8.9%[46.1 µM]	-2.9%	·	·	·	·	-14.9%[46.1 µM]	21.8%
O=C(c1ccc2c(c1)OCO2)N1CCNc2ccccc2C1	1.8%	10.0%	-4.8%	2.3%	-5.8%	-12.5%	15.2%	-11.7%
COc1ccc(OC)c(NS(=O)(=O)c2ccc(Cl)nc2)c1	14.0%	-0.4%	-0.1%	-0.7%	5.5%	-6.1%	-8.5%	-0.3%
Cc1c(C(=O)N(CCc2ccccc2)Cc2ccccc2)cccc1[N+](=O)[O-]	?	-26.7%	·	-6.6%	0.6%	·	?	7.3%
COc1ccc(NC(=O)CN(C)CCOc2ccc(Cl)cc2)cc1OC	?	-19.9%	·	-0.4%	-10.2%	·	5.5%[46.1 µM]	11.4%
COc1cccc(Nc2sc(C(=O)c3ccc(Cl)cc3)c(N)c2C(=O)NCCc2ccc(OC)c(OC)c2)c1	-24.2%[46.1 µM]	-16.3%	2.2%	·	·	?	·	·
O=C(CSc1ncc(S(=O)(=O)c2ccccc2)c(=O)[nH]1)Nc1ccccc1Cl	11.3%	-17.1%	·	0.6%	3.7%	·	10.1%[46.1 µM]	0.5%
CN(CC(=O)Nc1ccccc1Cl)CC(=O)Nc1sc2c(c1C(N)=O)CCC2	-24.7%	-25.4%	·	0.2%	·	·	-8.1%[46.1 µM]	-13.4%
NS(=O)(=O)c1ccc(CCNC(=O)CNC(=O)c2ccc(F)cc2)cc1	7.5%	-13.3%	·	-7.1%	9.6%	·	-0.5%	-1.2%
CCCCNc1nc(Oc2ccc(=O)n(-c3ccccc3)n2)nc(N(CC)CC)n1	?	-25.2%	-2.4%	·	·	-9.1%	4.7%[46.1 µM]	·
CCCCCOc1ccc(/C=C/C(=O)Nc2sc(C)c(C)c2C(=O)OCC)cc1OC	-19.0%[46.1 µM]	?	-0.9%	·	·	-1.0%	·	·
CC(C)NC(=O)CSc1c2c(nc3ccccc13)CCCC2	1.2%[46.1 µM]	-28.7%	·	0.3%	·	·	11.6%[46.1 µM]	9.6%
CC(Oc1cccc(Cl)c1)C(=O)Nc1ccccc1N1CCCC1 (centres undefined)	?	-28.0%	·	1.2%	·	·	4.4%	10.7%
Cc1ccc(NC(=O)C2CCCN(S(=O)(=O)c3c(C)n[nH]c3C)C2)c(C)c1 (centres undefined)	-10.2%[46.1 µM]	0.0%	-1.6%	·	·	-3.4%	-25.5%[46.1 µM]	·
COc1ccccc1C1c2c(C)nn(-c3ccccc3)c2NC(=O)C1NC(=O)c1ccccc1 (centres undefined)	-1.8%	-26.5%	1.4%	-8.6%	-0.9%	7.4%	-5.0%	8.8%
COc1ccccc1C(=O)NN1C(=O)C2C3C=CC(O3)C2C1=O (centres undefined)	2.9%	-18.5%	0.2%	4.7%	3.4%	8.0%	?	1.0%
COc1ccc(C(c2nnnn2C2CCCCC2)N2CCN(C)CC2)c(OC)c1 (centres undefined)	-13.2%	-0.3%	·	0.8%	1.7%	·	1.7%	-6.3%
O=C(Nc1ccc(S(=O)(=O)Nc2cnc3ccccc3n2)cc1)c1ccc(Cl)c([N+](=O)[O-])c1	·	24.0%	·	16.3%	3.7%	·	·	2.9%
COc1ccc(S(=O)(=O)N2CCN(C)CC2)cc1C(=O)N1CCCCC1	5.4%	-12.3%	·	-0.8%	11.4%	·	?	4.1%
CCOc1ccc(/C=C2/SC(=S)N(C(C(=O)O)c3ccccc3)C2=O)cc1OCC (centres undefined)	6.4%	5.0%	·	1.3%	·	·	-14.4%[46.1 µM]	8.7%
COc1ccc(-n2nc(C(=O)N(C)c3cccc(C(F)(F)F)c3)c3c4ccccc4n(C)c3c2=O)cc1	15.9%[46.1 µM]	?	3.7%	·	·	2.6%	5.9%[46.1 µM]	·
CCc1cccc(C)c1NC(=O)COC(=O)c1c2c(nc3ccccc13)/C(=C\c1cccs1)CCC2	-2.9%	-22.5%	0.3%	-1.9%	22.5%	7.94µM*	?	0.5%
Cc1cccc(/C=C(\C#N)C(=O)Nc2ccccn2)c1	23.8%[46.1 µM]	18.2%	·	-1.5%	-2.9%	·	1.9%[46.1 µM]	-6.4%
CCCCC(=O)NC(c1ccccc1Cl)c1ccc2cccnc2c1O (centres undefined)	·	-6.6%	·	?	-71.3%	·	·	7.9%
N#Cc1c(NC(=O)C2CCCO2)sc2c1CCCCC2 (centres undefined)	?	1.6%	·	-5.5%	·	·	?	-18.1%
Cc1cc(C)nc(N(C#N)S(=O)(=O)c2ccccc2)n1	6.5%	-18.8%	-0.4%	4.7%	-37.7%	5.1%	-19.1%	3.0%
CCn1c(=O)c(C(=O)Nc2ccc(C)cc2C)c(O)c2ccccc21	9.2%	17.8%	·	1.6%	-6.2%	·	1.8%	4.9%
COCCSc1nc2c([nH]c3ccccc32)c(=O)n1-c1ccc(OC)c(OC)c1	-3.4%[46.1 µM]	-7.1%	-2.2%	·	·	?	·	·
CCOC(=O)c1c(CN2CCCCC2)oc2ccc(OC)cc12	0.9%	-17.3%&-18.9%	0.7%&-7.9%	2.3%&3.4%	-17.4%&0.3%	-7.6%&-0.5%	?	-2.0%&2.6%
CC1CC(C)CN(C(=O)Cn2c(-c3nonc3N)nc3ccccc32)C1 (centres undefined)	-12.6%	0.0%	-4.5%	-3.0%	4.4%	-3.4%	5.0%[46.1 µM]	0.7%
CCNC(=O)NC(=O)C(C)OC(=O)c1ccc(-n2nc(SC)sc2=S)cc1 (centres undefined)	4.1%	7.7%	-10.1%	9.0%	4.1%	14.6%	2.5%[46.1 µM]	-15.6%
